Screens as filed in PubChem.
Cruzain Triton: qHTS Assay for Promiscuous and Specific Inhibitors of Cruzain (with detergent) | 0.43% of 200,000 active | Potency, µM, for the others: max response, negative = inhibition, usual class: inhibitors | purified cruzain, Z-FR-AMC fluorescence, 0.01% Triton | AID 1478, 2009 | Cruzipain (Trypanosoma cruzi), P25779; active = well fitted curve in the direction sought with a large enough effect; inconclusive = small, poorly fitted or top-dose-only effect, or another doubt; inactive = no such curve, though single readings can be large; an effect the other way counts as inactive or inconclusive;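 also: plate controls were neutral wells for no effect and buffer without enzyme for full effect; nearly all actives have a fitted effect of over 40% in size; top concentration of the series not given in the record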
Target sequence (P25779 123-467 limits assumed): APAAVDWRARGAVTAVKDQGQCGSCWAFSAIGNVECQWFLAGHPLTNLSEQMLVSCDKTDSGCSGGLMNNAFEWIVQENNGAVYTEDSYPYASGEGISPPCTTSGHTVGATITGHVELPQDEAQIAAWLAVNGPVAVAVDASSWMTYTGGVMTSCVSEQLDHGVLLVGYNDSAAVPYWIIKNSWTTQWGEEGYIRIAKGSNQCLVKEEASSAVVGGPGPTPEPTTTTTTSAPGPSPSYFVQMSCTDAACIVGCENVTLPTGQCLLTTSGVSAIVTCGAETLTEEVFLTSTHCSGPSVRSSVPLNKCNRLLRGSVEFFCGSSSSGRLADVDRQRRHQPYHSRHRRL
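Cysteine protease activity tested under reducing, mildly acidic conditions (100 mM sodium acetate pH 5.5, 5 mM DTT) plus 0.01% Triton X-100. Cruzain 1.5 nM; substrate Z-FR-AMC 2 uM; 15 min compound preincubation at room temperature.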
Marburg entry inh: qHTS for inhibitors of binding or entry into cells for Marburg Virus | AID 540276, 2011 | Potency, µM (top dose mostly 37.8 µM), inactives show at the top dose activity change, negative = inhibition, hits mostly inhibitors | 1.8% of 300,000 active | Marburg virus pseudotyped entry inhibition, cell reporter; control for the full effect not named in the record; about a third of the inactives were read at about 46 µM; active = well fitted inhibition curve with a large enough effect; inconclusive = small, poorly fitted or top-dose-only effect, or effect the other way; inactive = flat fitted curve, though single readings scatter; tested in HEK293 cells; about a fifth of its hits are not listed in these tables; also: % is scaled to controls: 0 for no effect and ±100 for the full control effect; luciferase read-out
Lassa entry inh: qHTS for Inhibitors of binding or entry into cells for Lassa Virus | 1.2% of 300,000 active | AID 540256, 2011 | Potency, µM (top dose mostly 37.9 µM), for inactives: top-dose activity change, negative = inhibition, most hits filed as inhibitors | Lassa virus pseudotype entry inhibition, cell reporter; control for the full effect not named in the record; active means well fitted inhibition curve with a large enough effect; inconclusive means small, poorly fitted or top-dose-only effect, or effect the other way; inactive means flat fitted curve, though single readings scatter; tested in HEK293 cells; also: % is scaled to controls: 0 for no effect and ±100 for the full control effect; nearly all actives have a fitted effect of over 50% in size; luciferase read-out
RE007 growth inh: qHTS Assay for Inhibitors of the HIV-1 protein Vpr; S. pombe RE007 Vpr strain, BacTiter-Glo ATP luminescence, 24 h; control for the full effect not named in the record; Potency, µM (highest dose often 92.2 µM), for inactives: at the top dose activity change, negative = less growth; 0.21% of 360,000 active; AID 651644, 2012; active = well fitted falling curve with a large enough effect; inconclusive = small, poorly fitted or top-dose-only effect; inactive = no such curve, though single readings can be large or run the other way;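 also: % is scaled to controls: 0 for no effect and ±100 for the full control effect; nearly all actives have a fitted effect of over 50% in size; the assay follows cell death caused by Vpr and the record does not say whether a fall means rescue or toxicity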
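Fission yeast strain RE007, carrying one chromosomally integrated HIV-1 vpr copy, was seeded at OD 0.01 in PMG+AL medium with 23 nL pinned compound. After 24 h at 30 °C and 99% humidity, viability was read by BacTiter-Glo luminescence.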
Cruzain inh noDet: qHTS Assay for Promiscuous and Specific Inhibitors of Cruzain (without detergent); Cruzipain (Trypanosoma cruzi), P25779; purified cruzain, Z-FR-AMC fluorescence, no detergent; Potency, µM, for inactives: max response, negative = inhibition, actives largely listed as inhibitors; 2.3% of 200,000 active; AID 1476, 2009; active = well fitted curve in the direction sought with a large enough effect; inconclusive = small, poorly fitted or top-dose-only effect, or another doubt; inactive = no such curve, though single readings can be large; an effect the other way counts as inactive or inconclusive;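 also: plate controls were enzyme without inhibitor for no effect and buffer without enzyme for full effect; nearly all actives have a fitted effect of over 40% in size; top concentration of the series not given in the record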
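Detergent-free condition (0.00005% Triton X-100) in acetate buffer pH 5.5 with DTT. 1.5 nM enzyme and compound were pre-mixed 15 min, then 2 uM Z-FR-AMC substrate added; reaction progress from fluorescence change between first and third reads (60 s).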
NS1 inh: qHTS Assay for Inhibitors of Influenza NS1 Protein Function. S. cerevisiae slowed by influenza A NS1, growth recovery by OD600. 0.4% of 270,000 active. Potency, µM (top dose mostly 46.1 µM), inactives show at the top dose activity, positive = more growth. AID 2326, 2010; also: actives are rising curves; nearly all actives have a fitted effect of over 50% in size
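In this qHTS, NS1 from influenza A is expressed in budding yeast, where it slows growth. Cells are switched from glucose to 2% galactose medium (pH 6.0, -URA), treated with compound, and growth recovery is read at OD600.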
2A StopGo: High Throughput Screening for Foot and Mouth Disease Virus Antivirals | human cells with a luciferase reporter of 2A StopGo recoding; control for the full effect not named in the record | Potency, µM (series often up to 57.9 µM), without a hit: at the highest dose signal change, negative = less light | 1.2% of 410,000 active | AID 1159524, 2015; active = well fitted falling curve with a large enough effect; inconclusive = small, poorly fitted or top-dose-only effect; inactive = no such curve, though single readings can be large or run the other way; tested in HEK293T cells; also: % is scaled to controls: 0 for no effect and ±100 for the full control effect; nearly all actives have a fitted effect of over 45% in size; luciferase light after 4 h
SARS PLP yeast: qHTS of Yeast-based Assay for SARS-CoV PLP; S. cerevisiae expressing SARS-CoV PLpro, growth rescue; control for the full effect not named in the record; Potency, µM (titrated, usually from 32.9 µM), without a hit: at the top dose activity, positive = growth rescue; 0.19% of 330,000 active; AID 485353, 2010; also: 0% is about no effect; nearly all actives have a fitted effect of over 55% in size; growth read by luminescence after 48 h
Starred values were filed as active, the others as inactive; ? = inconclusive; . = not tested or not shown; & = joins results of further samples; ! = not confirmed by another sample; [ ] = remark or other dose. Unless noted, calls follow the shape of the dose curve; as a rule, active means well fitted rising curve with a large enough effect; inconclusive means small, poorly fitted or top-dose-only effect; inactive means no such curve, though single readings can be large or run the other way. Potency is read from the fitted curve at half-maximal effect.

A first look:
structure	Cruzain Triton	Marburg entry inh	Lassa entry inh	RE007 growth inh	Cruzain inh noDet	NS1 inh	2A StopGo	SARS PLP yeast
COc1ccc(N2C(=O)NC(=O)/C(=C\c3ccc([N+](=O)[O-])s3)C2=O)cc1	.	-21.0%[46.1 µM]	-20.0%	-26.6%	.	.	-28.5%	-4.8%
CC(C)CCn1c(=O)c2sccc2n2c(CCCC(=O)NC(C)C)nnc12	-1.0%	.	9.9%[46.1 µM]	.	7.2%	.	2.2%	.

The listing, from the first entry:
structure	Cruzain Triton	Marburg entry inh	Lassa entry inh	RE007 growth inh	Cruzain inh noDet	NS1 inh	2A StopGo	SARS PLP yeast
COc1ccc(N2C(=O)NC(=O)/C(=C\c3ccc([N+](=O)[O-])s3)C2=O)cc1	.	-21.0%[46.1 µM]	-20.0%	-26.6%	.	.	-28.5%	-4.8%
CC(C)CCn1c(=O)c2sccc2n2c(CCCC(=O)NC(C)C)nnc12	-1.0%	.	9.9%[46.1 µM]	.	7.2%	.	2.2%	.
N#CCOC(=O)[C@H](Cc1c[nH]c2ccccc12)NS(=O)(=O)c1ccc(Cl)cc1	.	.	.	-9.2%	.	1.8%	-16.1%	3.1%
Cc1cc2c(ccc3[nH]onc32)n1	1.7%	-11.6%	-12.0%	-1.9%	-9.1%	-20.6%	-15.1%	-11.6%
Cc1ccc(-c2nc3ccccc3n3c(-c4ccccc4)c4c(=O)n(C)c(=O)n(C)c4c23)cc1	-0.1%	?	29.9%[46.1 µM]	.	4.0%	.	-15.2%	.
Fc1cccc2sc(Nc3nc4cc5c(cc4s3)OCCO5)nc12	1.5%	?	?	?	?	7.6%	-24.1%	-19.3%
O=C(CCCc1ccccc1)NCCCN1CCOCC1	5.1%	18.2%	1.5%	13.5%	-1.0%	2.9%	-1.2%	2.1%
CCOc1ccc(NC(=O)c2ccc(NC(=O)COC(=O)c3ccc(NC(=O)CC#N)cc3)cc2)cc1	.	-2.5%	17.8%	5.5%	.	.	24.4%	19.2%
CCOc1ccc(NCc2cc3cc(OC)ccc3[nH]c2=O)cc1	.	.	.	-5.3%	.	-2.4%	?	0.4%
CCOc1cc(CNCc2ccccc2)ccc1OCC(=O)NC1CCCCC1	.	?	-18.9%	3.7%	.	-6.1%	-1.3%	-2.5%
Cc1cccc(NC(=O)CSc2nnc(-c3ccc(S(=O)(=O)N4CCOCC4)cc3)n2C)c1	4.5%	-2.3%&-2.3%	14.6%	-7.0%	?	-14.5%	-22.3%	5.3%
COc1ccc(-c2onc(C)c2C)cc1S(=O)(=O)NCC1CCN(Cc2cc(C)ccc2C)CC1	1.5%	.	?	.	2.5%	.	5.3%	.
COc1cc(OC)cc(C(=O)Nc2ccc3c(c2)CCCN3C(=O)c2cccs2)c1	-1.2%	.	?	-3.1%	-6.8%	-15.5%	?	-1.5%
CCN(CC(=O)Nc1ccccc1C(F)(F)F)C(=O)c1cc(S(=O)(=O)N(C)C)ccc1N1CCCC1	.	2.4%	-17.7%	1.2%	.	4.3%	-8.5%	-2.6%
CN(CC(=O)Nc1ccc(F)cc1F)S(=O)(=O)c1ccc(C(=O)N2CCOCC2)s1	1.2%	.	-1.2%[46.1 µM]	.	4.2%	.	-11.4%	.
COc1cc(NS(=O)(=O)c2ccc(N=Cc3c(C)[nH]n(-c4ccccc4)c3=O)cc2)nc(OC)n1	-8.9%	2.5%	-2.7%	-14.4%	?	16.7%	24.7%	-1.9%
O=C(NCC1CCCO1)c1ccccc1NS(=O)(=O)c1ccc(Br)s1 (stereo not given)	.	13.4%[46.1 µM]	-5.5%	2.5%	.	.	?	.
CC(=O)Nc1ccc(S(=O)(=O)NCCc2cc3ccc(C)c(C)c3[nH]c2=O)cc1	.	-3.0%	14.9%	-3.3%	.	-4.0%	-11.3%	?
CN(C)S(=O)(=O)c1cc(C(=O)NCC2CCCO2)c(Cl)cc1Cl (stereo not given)	0.2%	-2.5%	6.7%	-8.3%	2.2%	4.0%	0.2%	6.6%
CN(CC(=O)N1CCCC1)S(=O)(=O)c1cc(Cl)ccc1Cl	2.3%	?	-1.5%	-1.7%	-14.0%	9.6%	-6.0%	8.2%
Cc1cccc(N(CC(=O)NC2CCCC2)C(=O)CCC(=O)Nc2nc(C)cs2)c1	.	-6.4%[46.1 µM]	-9.8%	-7.1%	.	2.0%	-1.5%	1.0%
CN(C)C(=O)CN1CCN(Cc2nc(CC3CC3)no2)CC1	.	8.0%[46.1 µM]	28.6%	-1.6%	.	2.0%	32.9%[activator]	2.7%
CC(C)c1ccc(OCC(=O)Nc2cc(-c3ccccc3)no2)cc1	2.7%	2.0%[46.1 µM]	5.8%[46.1 µM]	.	-2.0%	.	?	.
O=C(O)CC12CC3CC(C1)CC(n1ncc(NCc4ccco4)c(Cl)c1=O)(C3)C2	.	-0.5%[46.1 µM]	5.5%	9.3%	.	5.4%	-11.5%	0.1%
S=C(NCCc1ccccc1)Nc1ccc(N2CCCCC2)cc1	.	.	.	6.5%	.	-3.8%	-3.5%	-0.1%
O=C(NN=Cc1c(O)ccc2ccccc12)C1CC1	.	?	?	-20.2%	.	.	12.6%	.
CC(=O)c1cc2c(cc1NC(=O)CSc1ccc(S(=O)(=O)N(C)C)cn1)OCO2	.	-21.8%	-15.7%	-20.6%	.	.	-24.1%	7.4%
COc1cccc(CNC(=O)CSc2c3c(nc4cc(Cl)ccc24)CCCC3)c1	-7.8%	-33.4%[46.1 µM]	?	.	-17.0%	.	?	.
CCCOc1ccc(C(CC(=O)O)NC(=O)CC(c2ccccc2)c2ccccc2)cc1 (stereo not given)	.	-25.9%[46.1 µM]	?	2.5%	.	.	-2.6%	3.9%
O=C(N/C=N/OCc1cccc(C(F)(F)F)c1)N1OC[C@@H]2COc3ccc4ccccc4c3[C@@H]21	7.2%	11.5%	17.5%	-1.3%	-22.8%	22.5%	?	-1.1%
COc1cc(/C=C/c2ccc3cccc([N+](=O)[O-])c3n2)ccc1OCC#N	-4.3%	?	?	-4.7%	?	15.5%	-22.9%	18.2%
Cc1cccc(-c2noc(-c3cccnc3NCc3ccccc3Cl)n2)c1	-6.6%	17.1%[46.1 µM]	-1.4%[46.1 µM]	.	-23.5%	.	38.3%[activator]	.
CCOc1ccc(CC(=O)Nc2sc(Cc3ccccc3)c(C)c2C(N)=O)cc1OCC	-2.7%	-6.0%	6.3%	3.2%	6.7%	13.6%	-21.6%	-8.9%
O=C(CNc1ccc2c(c1)OCO2)N/N=C\c1cn(Cc2ccc(F)cc2)c2ccccc12	0.1%	?	?	.	?	12.6µM*	.	-6.5%
CCc1ccc(C2CC(c3ccccc3)n3ncnc3N2)cc1 (stereo not given)	-2.6%	.	.	-0.7%	2.5%	-24.4%	-15.9%	-1.0%
O=C(NCCC1CCCCN1S(=O)(=O)c1ccc(Cl)cc1)C(=O)NCc1ccncc1 (stereo not given)	.	-10.1%[46.1 µM]	-18.5%	-1.7%	.	.	?	-2.5%
CCOc1ccc2oc(C(=O)OCC(=O)NC(=O)NC)c(C)c2c1	.	?	24.2%[46.1 µM]	0.0%	.	-3.5%	-8.7%	0.0%
CCOc1cc(C(=O)Nc2ccc(N3CCOCC3)cc2)cc(Br)c1OC	.	?	?	-4.9%	.	.	-24.2%	-1.7%
CCNc1nc2c(c(=O)[nH]c(=O)n2C)n1CC(O)COc1ccc(Cl)cc1Cl (stereo not given)	-1.1%	.	?	.	2.5%	.	?	.
Cc1ccc(Cl)cc1N(C)C(=O)c1sc2nc3n(c(=O)c2c1C)CCCC3	-5.3%	.	-0.9%[46.1 µM]	.	-0.6%	.	-21.5%	.
CCOC(=O)N1CCN(C(=O)c2c(-c3ccccc3Cl)noc2C)CC1	.	0.7%[46.1 µM]	2.9%	6.2%	.	1.9%	-1.9%	1.8%
O=C(Cc1cc(=O)[nH][nH]1)N/N=C/C=C/c1ccccc1	-3.1%&-9.0%	-6.4%&-1.0%	-10.0%	-15.0%	-11.2%&1.6%	5.01µM*!	4.1%	2.5%&-3.3%
COc1ccc(-c2noc(N3CCC(C(=O)N(C)c4ccccc4C)CC3)n2)cc1	.	.	.	5.9%	.	-89.7%	6.2%	0.8%
COc1ccc(OCC(=O)Nc2cccc(NC(=O)c3ccco3)c2)cc1	.	.	.	-17.8%	.	-0.6%	9.0%	-2.1%
CCOC(=O)c1ccccc1NC(=O)NC(C)c1c(-n2cccc2)sc(C)c1C (stereo not given)	-5.9%	1.4%[46.1 µM]	.	.	-12.2%	.	-18.9%	.
O=C1CCc2cc(S(=O)(=O)N3CCCCC3)cc3c2N1CCC3	.	-2.7%[46.1 µM]	-1.2%	14.6%	.	.	2.2%	-12.4%
COc1cc(/C=C2/C(=O)c3cccc([N+](=O)[O-])c3C2=O)c(Br)cc1O	-2.9%	?	-9.4%	-12.3%	5.2%	0.8%	3.55µM*	-54.5%
CC(C)(C)N1CC(C(=O)c2ccccc2)C1c1ccccc1 (stereo not given)	.	?	1.1%[46.1 µM]	15.7%	.	.	-12.2%	.
CC1(C)OC(=O)C(=CNc2cccc(O)c2)C(=O)O1	-0.7%	2.2%	2.8%	1.6%	8.5%	0.2%	49.2%[activator]	2.5%
O=C(c1cc(-c2ccncc2)nc2ccccc12)N1CCC2(CC1)OCCO2	2.5%	?	-16.1%	0.5%	-3.7%	-5.2%	-17.9%	6.7%
